PINK1 expr mod: A Quantitative High throughput Screen to Identify Chemical Modulators of PINK1 Expression | 410,000 tested, 0.2% active | AID 624263, 2012 | Potency, µM (titrated, usually from 76.6 µM), without a hit: top-dose activation (PINK1 increase), most hits filed as activators | PINK1 immunofluorescence, high-content cytometry, 24 h; active = well fitted activation curve with a large enough effect; inconclusive = small, poorly fitted or top-dose-only effect; inactive = flat fitted curve, though single readings scatter; cell line not stated here;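 further: potency means the concentration at half of the fitted maximal effect; % of control where 0% means no effect; nearly all actives have a fitted effect of over 65% in size; a mitochondrial uncoupler was the plate control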
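Cells are seeded, rested 12 hours, then given compound at five concentrations or DMSO for 24 hours. After fixation, blocking and antibody staining, PINK1 amount and mitochondrial localization are scored; CCCP serves as control.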
D2 ag: Beta-Arrestin HTS for Positive Allosteric Modulators of the Human D2 Dopamine Receptor: Agonists; DiscoveRx PathHunter D2 beta-arrestin, luminescence, 90 min; 100% = 57 uM dopamine signal; activation, % (test concentration not listed); 360,000 tested, 0.084% active; D(2) dopamine receptor (Homo sapiens), P14416; AID 624465, 2012; in the data active = activation above about 40%; inconclusive = about 15% to 40%; inactive = below about 15%; further: compound concentration not given in the record; the text of the record calls up to 30% inactive
Target sequence (P14416 whole entry, looked up): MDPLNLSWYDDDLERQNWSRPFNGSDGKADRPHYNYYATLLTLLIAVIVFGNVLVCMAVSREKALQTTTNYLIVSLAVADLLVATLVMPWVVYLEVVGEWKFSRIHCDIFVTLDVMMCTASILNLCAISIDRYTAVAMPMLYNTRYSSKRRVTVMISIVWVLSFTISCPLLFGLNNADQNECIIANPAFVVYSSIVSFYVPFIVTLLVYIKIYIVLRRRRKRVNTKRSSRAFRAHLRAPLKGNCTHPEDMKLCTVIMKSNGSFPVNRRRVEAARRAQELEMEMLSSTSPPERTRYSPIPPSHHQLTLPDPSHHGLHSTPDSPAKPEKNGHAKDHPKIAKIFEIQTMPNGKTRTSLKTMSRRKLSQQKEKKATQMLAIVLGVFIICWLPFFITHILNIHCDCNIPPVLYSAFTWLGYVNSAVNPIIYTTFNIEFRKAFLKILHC
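DiscoveRx PathHunter D2 beta-arrestin cells (2,100/well) attached overnight, then compound-stimulated 90 min at 37 C in HBSS/10 mM HEPES/0.1% Tween-20 buffer; beta-galactosidase complementation read by luminescence after 1 h at ambient temperature. Dopamine 57 uM final (EC100) as control.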
TRPML1 agonist: qHTS for Agonists of the Human Mucolipin Transient Receptor Potential 1 (TRPML1) | activation, % (test concentration not listed) | AID 624414, 2012 | TRPML1-expressing cells, Ca2+ dye fluorescence, FDSS; host cell line not named in the record; reference of the full effect not given here | 410,000 tested, 0.12% active; in the data active = activation above about 50%; inconclusive = about 30% to 50%; inactive = below about 30%; further: 0% is about no effect; the text of the record puts the active cut at 80%
Target sequence (Q9GZU1 whole entry, looked up): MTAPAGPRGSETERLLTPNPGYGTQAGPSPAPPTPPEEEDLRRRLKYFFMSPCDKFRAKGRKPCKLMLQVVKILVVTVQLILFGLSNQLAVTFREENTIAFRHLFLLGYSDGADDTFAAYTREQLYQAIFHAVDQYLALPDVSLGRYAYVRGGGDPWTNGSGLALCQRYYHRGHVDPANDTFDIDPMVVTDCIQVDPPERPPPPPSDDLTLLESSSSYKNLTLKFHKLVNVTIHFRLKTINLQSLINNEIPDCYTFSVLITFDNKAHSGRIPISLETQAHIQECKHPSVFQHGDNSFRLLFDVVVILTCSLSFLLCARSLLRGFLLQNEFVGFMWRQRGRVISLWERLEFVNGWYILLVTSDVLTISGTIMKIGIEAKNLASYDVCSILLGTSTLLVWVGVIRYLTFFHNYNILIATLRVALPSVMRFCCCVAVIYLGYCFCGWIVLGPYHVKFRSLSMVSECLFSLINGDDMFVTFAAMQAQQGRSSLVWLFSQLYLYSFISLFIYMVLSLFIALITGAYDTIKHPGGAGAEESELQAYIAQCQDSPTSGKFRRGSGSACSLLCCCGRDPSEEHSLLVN
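In this qHTS format, compounds were pin-transferred onto Ca8-dye-loaded TRPML1-DL cells induced with Tet overnight, and intracellular Ca2+ fluorescence was recorded kinetically for 110 s after a 10 s baseline. A subsequent 4uM final 54-4 (EC80) addition followed by a second 110 s read served as the antagonist phase.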
CtBP-E1A inh: qHTS Assay for Inhibitors of the CtBP/E1A Interaction. activity change, % (concentration not given with the values). 340,000 tested, 0.49% active. CtBP / adenovirus E1A interaction (AlphaScreen). AlphaScreen GST-E1A/His-CtBP binding, 1536-well; hits give low values; control for the full effect not named in the record; in the data active means activity change below about -65%; inconclusive means about -30% to -65%; inactive means above about -30%; further: on the % scale 0 is the no-effect control and ±100 the full control effect
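Steps: dispense buffer (Tris pH 8.0, NaCl 300 mM, TCEP 1 mM, BSA, Tween 20); add 5X protein mix (GST-E1A, His-CtBP, 125 nM each); pin 23 nL compound; 2 h at 37 °C, dark; add 5X beads (50 ug/mL); 1 h; read.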
Six1-Eya2 blk: qHTS Assay for Inhibitors of the Six1/Eya2 Interaction. Homeobox protein SIX1 (Homo sapiens) + Protein phosphatase EYA2 (Homo sapiens), …. AlphaScreen GST-Six1/His-Eya2 binding, biochemical; hits give low values; control for the full effect not named in the record. activity change, % (test concentration not listed). 360,000 tested, 0.56% active. AID 651725, 2012; in the data active = activity change below about -65%; inconclusive = about -30% to -65%; inactive = above about -30%; further: on the % scale 0 is the no-effect control and ±100 the full control effect; compound concentration not given in the record
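Six1/Eya2 binding was read as AlphaScreen signal after compounds were pinned into GST-Six1 plus His-tagged Eya2 (5X stock 250/500 nM) in pH 8.0 Tris/NaCl/TCEP buffer, beads added, then incubated 1 h, 37 C, dark.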
TRPML1 blocker: qHTS for Inhibitors of the Human Mucolipin Transient Receptor Potential 1 (TRPML1) | TRPML1-inducible cells, Ca2+ dye fluorescence, FDSS; hits give low values; inhibition of EC80 agonist-evoked calcium signal | activity change, negative = inhibition, % (concentration not given with the values) | 390,000 tested, 0.02% active | AID 624415, 2012; in the data active means activity change below about -50%; inconclusive means about -30% to -50%; inactive means above about -30%;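 further: stimulus is agonist 54-4 at its EC80 concentration; on the % scale 0 is the no-effect control and ±100 the full control effect; compound concentration not given in the record; the text of the record puts the active cut at -80%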
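Tet-induced TRPML1-DL cells loaded with Ca8 no-wash calcium dye were read kinetically on FDSS. Compound addition was followed by EC80 agonist 54-4 (4 uM final); inhibition was read over 110 s.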
* hit, by the source's call; u = inconclusive; x = no result given; [ ] = dose if it differs, or a comment.

Compound | PINK1 expr mod | D2 ag | TRPML1 agonist | CtBP-E1A inh | Six1-Eya2 blk | TRPML1 blocker
CCc1cc(C(=O)OC)c(NC(=O)CC2SC(N)=NC2=O)s1 (centres undefined) | 3.7% | -5.4 | -0.5 | 1.4 | -3.5 | 0.0
COCCn1c(=S)[nH]c2cc(C(=O)N3CC(C)CC(C)C3)ccc2c1=O (centres undefined) | -0.2% | -1.1 | -0.5 | 10.5 | -3.5 | -9.0
COc1ccc(CCNC(=O)c2cc([N+](=O)[O-])ccc2N2CCOCC2)cc1 | u | -3.4 | -0.7 | 0.5 | 0.0 | 4.8
CCc1nnc(SCc2ccc(OC(C)C)cc2)n1N | 3.6% | -3.2 | -0.8 | 0.7 | 2.8 | -7.3
O=C(O/N=C\c1ccc(N2CCOCC2)c([N+](=O)[O-])c1)c1ccccc1Cl | 0.6% | -1.7 | 2.7 | 0.2 | u | 14.7
Cc1cc(C)c(NC(=O)CSc2nc(COc3ccccc3)nc3ccccc23)c(C)c1 | 5.6%[38.3 µM] | -3.0 | 5.2 | 4.6 | 5.3 | 17.8
COC(=O)NC1(C(F)(F)F)NC(=O)N(C2CCCCC2)C1=O (centres undefined) | -2.7% | -2.6 | -0.3 | -0.9 | 7.0 | 35.3
C[C@H](NC(=O)c1nc[nH]c1C(=O)N[C@@H](Cc1ccccc1)C(=O)OCc1ccccc1)c1ccccc1 | 3.4% | -2.0 | -0.2 | -6.2 | -8.6 | 1.4
CCOc1ccc(-n2ccnc2SCC(=O)Nc2ccc3c(c2)OCO3)cc1 | -2.5% | x | 4.4 | x | x | 42.0
COc1ccc(-c2c(C)nn3c(N)c(-c4ccccc4)cnc23)cc1OC | 3.3% | 4.3 | x | x | -1.2 | x
CCc1cccc(NC(=O)C2CCCN(c3cnccn3)C2)c1 (centres undefined) | -0.5% | -0.7 | 2.2 | x | -4.5 | 23.2
COc1ccc(CCNS(=O)(=O)c2cn(C)cn2)cc1OC | 2.8% | -1.2 | 0.2 | x | 6.0 | -9.3
Cc1csc(SCC(=O)NCc2cccc(Cl)c2)n1 | 2.2% | -7.2 | 0.5 | -5.6 | 4.2 | 30.9
CC(C)NC(=O)N(O)C1N(Cc2ccc3c(c2)OCO3)C(=S)SC1(C)C (centres undefined) | -0.2% | -4.3 | 0.6 | 3.3 | -4.6 | u
Cc1cc(Br)c2[nH]cc(CCNC(=O)c3ccco3)c2c1 | -0.3% | 1.3 | -0.5 | x | -14.4 | 17.4
N#Cc1c2c(c(-n3cnc4ccccc43)n3c1nc1ccccc13)CCC2 | 4.1% | -1.9 | -0.2 | -3.3 | -1.3 | 8.7
O=C(NC1CCN(S(=O)(=O)c2ccc(Cl)cc2)CC1)c1cccnc1 | 0.6% | -0.8 | -0.2 | -7.9 | 1.3 | 2.0
Cc1ccnc(NC(=O)C2CCN(S(=O)(=O)c3ccc4c(c3)CC(C)N4C(=O)C3CCC3)CC2)c1 (centres undefined) | 3.6% | 1.7 | 1.8 | -5.4 | -6.9 | -7.9
C=CCc1ccc(OC)c(OC)c1 | -0.7% | -5.9 | x | 6.5 | 1.8 | x
COCCNC(=O)C1(C)CCCN(C(=O)c2ccc(-c3ccccc3)cc2)C1 (centres undefined) | 0.1% | -3.2 | -0.6 | 3.5 | 4.1 | x
CC(C)CCNC(=O)C1CCN(C(=O)N2CCOc3ccc(Cl)cc32)CC1 | 0.4% | x | -0.5 | x | x | -20.9
CN(C)C(CNC(=O)c1ccc(NS(=O)(=O)c2cccc([N+](=O)[O-])c2)cc1)c1ccco1 (centres undefined) | 2.2% | 2.0 | 0.1 | -4.0 | -4.9 | -7.0
Cc1cc(NC(=O)COC(=O)c2n[nH]c3ccccc23)no1 | 0.4% | -1.8 | -0.1 | -1.4 | -0.9 | -15.4
COc1ccc(/C(N)=N/OC(=O)CC2CCCCC2)cc1OC | 0.5% | 8.1 | 2.0 | 9.3 | 3.2 | 12.4
Cc1cccc(-n2ncc3c(Nc4ccc(C)c(Cl)c4)ncnc32)c1 | 9.0% | x | 1.1 | x | x | -5.6
CN(C)c1ccc(NS(=O)(=O)c2cc3c4c(c2)CC(=O)N4CCC3)cc1 | -0.6% | 5.6 | -0.2 | x | -8.6 | 12.2
CC(Sc1ccccc1F)C(=O)Nc1cccc(S(=O)(=O)N2CCOCC2)c1 (centres undefined) | 0.9% | -0.7 | 1.6 | -0.2 | 1.9 | 29.0
CCn1c(SCC(=O)NCc2cccs2)nnc1-c1cccs1 | -0.1%[38.3 µM] | 1.3 | 0.7 | 10.2 | 1.5 | 0.1
COCc1c(C(=O)OC)nnn1-c1ccc(C(F)(F)F)cc1[N+](=O)[O-] | -1.1% | 3.7 | -0.5 | 4.5 | -0.2 | -14.2
Cc1ccc(CN(C)Cc2cc(=O)oc3cc(C)c(Cl)cc23)cc1 | 5.3% | -0.2 | 0.6 | 7.7 | 4.5 | -22.7
CCCCNC(=O)C1(C)CCN1C(=O)c1ccccc1Br (centres undefined) | 2.4% | 6.0 | -0.8 | 3.8 | 11.8 | x
c1ccc(CSc2snnc2-c2ccccc2)cc1 | -0.5% | 1.7 | 0.9 | 61.6 | 52.9 | 22.4
Cc1ccc(CSc2nc(=O)c3c(n2C)NC(=O)CC3c2ccc(OC(C)C)cc2)cc1 (centres undefined) | -0.5% | x | 16.4 | x | x | -12.5
O=C(NCc1ccco1)c1ccc2snnc2c1 | -1.1% | -0.5 | -0.2 | -0.5 | -12.0 | -2.8
Cc1ccc(C(=O)O)cc1NC(=O)Nc1ccc2c(c1)OCO2 | 1.4% | -2.4 | -0.5 | 0.0 | 21.6 | -19.3
CN1CCN(c2ccc(NC(=S)NC(=O)/C=C/c3ccco3)cc2)CC1 | 4.6% | -3.4 | 0.8 | -1.9 | -7.1 | -1.6
Cc1ccccc1OCCC(=O)OCC(=O)N1c2ccccc2NC(=O)C1(C)C | -0.2% | -0.7 | 2.4 | 2.3 | 0.4 | -1.5
CCOC(=O)C1=C(O)/C(=C/c2ccc(-c3ccccc3C(=O)O)o2)SC1=Nc1ccc(C)cc1 | 0.3% | -4.8 | 0.3 | -13.8 | -12.7 | -23.3
C=CCc1cccc2cc(C(=O)N3CCN(C(=O)OCC)CC3)c(=O)oc12 | 0.0% | -1.8 | -1.2 | 3.0 | -1.1 | -9.9
COc1ccc(NC(=O)c2cccc(NC(=O)c3ccccc3)c2)c(OC)c1 | -0.1% | 2.7 | -0.5 | -6.2 | -29.3 | -24.0
C(=C\c1ccccc1)/C=N/Nc1nc2ccccc2s1 | 6.8%[38.3 µM] | 1.5 | 4.0 | 3.2 | 4.0 | -3.7
COc1cccc(C2CC(=O)NC3=C2C(=O)CCC3)c1 (centres undefined) | 1.0% | -3.5 | 0.4 | 0.4 | -1.7 | -8.5
COc1ccc(NC(=O)N2CCCC2C(=O)Nc2ccc(C)cc2)cc1 (centres undefined) | -3.8% | -1.5 | 2.4 | -4.3 | 1.4 | -12.3
CCNC(=O)c1c(O)c2ccccc2[nH]c1=O | -3.0%[38.3 µM] | -2.2 | -0.3 | 10.5 | -4.2 | -3.6
CCC(=O)N1CCCc2cc(S(=O)(=O)N3CCN(C4CCCCC4)CC3)ccc21 | 5.7% | 3.0 | -0.3 | -3.2 | -0.6 | -6.3
Cc1cccc(NC(=O)c2ncn3c2C(=O)N(C)CC3)c1 | -0.5% | -2.1 | x | -12.0 | -4.2 | x
Cc1ccc(-n2c(O)c(/C=C3/C(c4ccccc4)=Nc4ccccc43)c(=O)[nH]c2=O)cc1 | 7.7% | -0.1 | 4.2 | 8.2 | 2.7 | 5.6
CCOc1ccc(-n2c(SCC(=O)Nc3ccc(C(=O)O)cc3)nc3ccccc3c2=O)cc1 | 0.4% | 1.2 | 0.2 | x | 3.5 | -7.9
COc1cc(-c2nnc(NC(=O)CS(=O)(=O)c3ccc(F)cc3)o2)cc(OC)c1OC | -4.1% | -1.8 | 0.3 | -10.7 | u | 39.7
CN(C)c1ccc(C(=O)Nc2c(C(=O)NC(C)(C)C)oc3ccccc23)cc1 | -0.4% | x | -1.0 | x | x | -2.3
COc1cc2ccnc(C=O)c2cc1OC | 2.0% | 2.9 | 6.9 | 0.5 | u | -9.3
COc1ccc(NC(=O)CSc2nnc(Cc3ccccc3)c(=O)n2N)cc1OC | 14.7% | -4.7 | 2.1 | 0.0 | 0.7 | 22.7
CCCCN1Cc2c(nc3cc(-c4ccccc4)[nH]n3c2=O)C1=O | 1.3% | -0.4 | 0.1 | 41.0 | 9.8 | -15.9
Cc1cc(C(=O)Cn2cnc3cc([N+](=O)[O-])ccc3c2=O)c(C)n1CC1CCCO1 (centres undefined) | 2.5% | 3.8 | -0.6 | -25.1 | -27.7 | -1.2
CCN(C(=O)COC(=O)c1ccc(O)cc1O)c1c(N)n(Cc2ccccc2)c(=O)[nH]c1=O | 1.3% | -3.1 | -0.6 | x | -3.0 | 3.4
Cc1cc(Cl)c(OCCOCCN2CCCCC2)c(Br)c1 | -0.4% | -5.7 | -0.3 | -3.5 | 4.6 | -7.3
O=C(NCCc1ccccc1Cl)C1CCN(c2nc3ccccc3nc2C(F)(F)F)CC1 | 0.9% | x | -0.9 | x | x | -7.9
CC(C)c1ccc(C(=O)OCC(=O)NC2CCCC2)cc1 | 0.3% | 2.2 | 0.4 | x | 5.9 | 12.6
O=C1CC(c2ccc(Cl)cc2)N=C(NC(=O)c2ccccc2)N1 (centres undefined) | -1.4% | x | -0.9 | x | x | 16.2
CCOC(CNC(=O)c1ccc(CNC(=O)c2ccc(OC)c(OC)c2)cc1)OCC | 2.2% | 0.4 | -0.7 | -18.3 | 0.7 | -9.9
O=C(Nc1ccc2c(c1)ncn2-c1ccccc1)c1ccco1 | 12.2%[38.3 µM] | -0.1 | 2.7 | 1.4 | -1.9 | 17.4
O=C(OCc1ccccc1Cl)c1ccccc1C(=O)c1ccccc1 | 12.6%[38.3 µM] | -3.3 | 1.4 | 52.4 | 60.5 | 7.2

Random draw from the library; 1% or so of the library scored in one or more.
